# Bioassay records: PubChem BioAssay, several laboratories
# Rce1 inhib: yeast Ras-converting enzyme inhibition; AID 2563; yeast membranes, quenched prenylated peptide cleavage fluorescence; calls only; 290,000 tested, 0.27% active; Q03530;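 active means fall in fluorescence gain of 50% or more versus controls, with final raw signal at or below 3038400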;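 further: plate controls were neutral control wells for no effect and wells lacking membranes for full effect; tested at 10 µM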
# Target sequence (Q03530 whole entry, looked up): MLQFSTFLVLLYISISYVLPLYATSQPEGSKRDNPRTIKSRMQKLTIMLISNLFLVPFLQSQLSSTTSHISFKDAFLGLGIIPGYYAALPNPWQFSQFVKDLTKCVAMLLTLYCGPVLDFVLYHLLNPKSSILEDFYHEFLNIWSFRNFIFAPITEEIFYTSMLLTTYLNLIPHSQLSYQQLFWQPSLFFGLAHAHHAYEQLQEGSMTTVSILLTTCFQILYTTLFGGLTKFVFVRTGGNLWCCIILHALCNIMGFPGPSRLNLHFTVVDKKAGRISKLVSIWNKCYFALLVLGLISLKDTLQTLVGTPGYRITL
# eIF4H FP inh: inhibitors of RNA binding by human eIF4H. eIF4H fluorescence polarization binding assay. 290,000 tested, 0.94% active. inhibition, % at 35 µM. Q15056;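 active means 50% or more with normal probe brightness, or confirmed in later tests; about a fifth of its hits are not listed in these tables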;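 further: calls also rest on retests at 20 µM and on dose response follow-up; 0% = protein and probe with vehicle and 100% = probe without protein; strong numbers were not always called active; many hits fall short of the cut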
# UUG fidelity: modulators of start codon recognition fidelity in yeast. 350,000 tested, 0.13% active. activity score, % at 18.7 µM. S. cerevisiae UUG-firefly luciferase reporter, luminescence/redox ratio;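 active means replicate mean at a twofold rise or more, about +100% in these data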;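 further: firefly luciferase made from a UUG start codon reports start codon fidelity; reporter light over untreated wells divided by growth signal over untreated wells; some hits fall short of that in this replicate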
# MT1-MMP act inh: blocks activation of human MT1-MMP | P50281 | AID 651647 | 360,000 tested, 0.061% active | HT1080 RFP-PRO-GFP cells, GFP/RFP ratio fluorescence, overnight; percent of plate control window, DMSO zero | GFP/RFP ratio change, % at 20 µM;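 active means GFP/RFP ratio change of at least 30% with cell ATP level not reduced by more than half and red fluorescence within 50% of control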; further: strong numbers were not always called active
#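 Assay system: HT1080 RFP-PRO-GFP cells. Benchmarks: DMSO vehicle wells and RFP-L50D-GFP reporter cell wells. Times: overnight cell settling, then overnight compound exposure, 37 °C, 5% CO2. Compound: 20 µM single dose, 1% DMSO. Read-out basis: GFP/RFP fluorescence ratio.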
# Env fusion inh: HIV envelope-mediated fusion inhibition; HeLa-JRFL Env/CEM21 cell fusion, luciferase; inhibition, % at 12.3 µM; 360,000 tested, 1.1% active;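 active means mean replicate inhibition score of at least 50 and every replicate individually at or above 50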;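 further: 0% = plate neutral controls and 100% = maraviroc near 300 nM; one replicate is shown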
# CSC inhib: cancer stem cell inhibition; cancer stem cell-like cells viability, luminescence; inhibition, % at 7.5 µM; 300,000 tested, 1.1% active;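 active means mean at 75% or more and at least half the replicates too; tested in HMLE shEcad cells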;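 further: 0% = median of negative and 100% = median of positive control wells; the first replicate is given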
# PABP polyA inh: PABP-poly(A) binding inhibition; P11940; PABP-poly(A) RNA binding, fluorescence polarization; inhibition, % at 35 µM; 290,000 tested, 1% active;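 active means 50% or more with normal probe brightness, or confirmed in later tests; about a fifth of its hits are not listed in these tables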;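 further: calls also rest on retests at 20 µM and on dose response follow-up; controls were probe without protein and protein plus probe with vehicle; some compounds called inactive have numbers as strong as hits; many hits fall short of the cut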
# Target sequence (P11940 whole entry, looked up): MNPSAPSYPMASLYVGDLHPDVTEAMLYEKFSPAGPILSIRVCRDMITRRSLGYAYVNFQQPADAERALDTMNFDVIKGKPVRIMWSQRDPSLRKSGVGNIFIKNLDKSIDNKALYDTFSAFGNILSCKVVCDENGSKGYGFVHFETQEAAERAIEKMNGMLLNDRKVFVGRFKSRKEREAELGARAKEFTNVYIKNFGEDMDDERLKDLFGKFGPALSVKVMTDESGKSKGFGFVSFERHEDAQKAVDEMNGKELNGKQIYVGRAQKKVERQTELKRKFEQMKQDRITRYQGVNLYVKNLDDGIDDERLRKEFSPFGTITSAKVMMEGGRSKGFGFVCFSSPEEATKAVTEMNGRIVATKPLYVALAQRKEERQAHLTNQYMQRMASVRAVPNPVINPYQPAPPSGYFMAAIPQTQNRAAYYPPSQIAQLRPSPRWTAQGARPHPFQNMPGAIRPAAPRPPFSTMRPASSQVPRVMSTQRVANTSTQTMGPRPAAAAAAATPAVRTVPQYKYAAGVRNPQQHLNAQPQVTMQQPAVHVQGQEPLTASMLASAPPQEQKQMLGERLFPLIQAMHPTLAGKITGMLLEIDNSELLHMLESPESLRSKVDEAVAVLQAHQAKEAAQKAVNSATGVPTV
# MT1-MMP act inh RFP: second read-out of MT1-MMP act inh, no call of its own (marks repeat the call); RFP signal change, %; measured here: RFP expression control read;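 0 = vehicle wells; hits needed this value within 50% of zero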
# * hit, by the source's call; i = inactive; x = no result given; + = active, no number. Rows are unselected (roughly 2.9% active in at least one column).
SMILES,Rce1 inhib,eIF4H FP inh,UUG fidelity,MT1-MMP act inh,MT1-MMP act inh RFP,Env fusion inh,CSC inhib,PABP polyA inh
CC1(C)CN(c2cccc(C#N)c2)C1=O,i,-1.2,x,-4.3,0.8,-4.1,-13.5,-1.5
CC1C(c2ccccc2)N(C)C(c2ccccc2)CC1(O)c1ccc(F)cc1 (stereo unspecified),i,-1.2,-10.6,-3.4,0.0,-12.7,-5.1,-10.3
CCOc1ccc(NCc2cccn2-c2nnc(N3CCC(C(=O)NCCCN4CC(C)CC(C)C4)CC3)s2)cc1 (stereo unspecified),i,-3.5,-13.6,0.5,-2.0,3.8,7.0,-0.8
CS/C(N)=N/N=C/c1cc(C)ccc1O,i,-5.2,x,18.3,6.9,-109.3,16.5,-0.6
COc1ccc(CC(=O)N2CCN=C2SC)cc1OC,i,-4.1,x,0.3,5.2,4.8,0.1,-3.2
Cn1c(SCC(=O)c2ccc(F)cc2)nnc1-c1cnccn1,i,-3.0,-15.1,-2.2,2.8,-8.6,-24.6,4.8
CN1CCN(CCNC(=O)c2cc3c(=O)n(C)c4ccccc4c3n2C)CC1,i,-14.0,-23.0,7.0,3.6,-3.7,5.0,-2.2
Fc1nc(N2CCCC2)c(F)c(Oc2ccccc2Oc2c(F)c(F)nc(N3CCCC3)c2F)c1F,i,4.4,-18.5,1.7,3.2,-77.3,-4.9,-3.0
CC(=O)Nc1ccc(S(=O)(=O)N(C)CC(=O)OC(C)C(=O)N(C)Cc2ccccc2)cc1 (stereo unspecified),i,-2.9,5.2,-1.5,0.2,-20.0,-9.2,-5.0
COc1cccc(N2CCN(c3ncnc4c3[nH]c3ccc(F)cc34)CC2C)c1 (stereo unspecified),i,13.4,-3.0,-29.1,-41.4,x,-9.1,-1.3
CC(C)(C)OC(=O)C[C@@H]1C/C=C\C[C@H](CC(=O)N[C@H](CO)Cc2ccccc2)C(=O)N[C@@H](Cc2c[nH]c3ccccc23)COC1=O,x,x,-16.8,4.3,2.5,-0.1,x,x
CCN(CC)c1ccc(CNC(=O)C/C(C)=N/NC(=O)COc2ccc(C)cc2Br)cc1,i,-5.0,-12.4,-1.0,1.0,3.5,x,0.1
O=C(CCCc1ccccc1)c1ccc2c(c1)OCCO2,i,-1.8,-87.6,-7.7,-4.8,x,-0.4,-0.4
O=C(Cc1ccc(Cl)cc1)Nc1ccccn1,i,-7.4,x,-3.0,-3.3,-3.2,-7.7,-3.6
COc1cccc(C2c3[nH]c4ccccc4c3CCN2Cc2cccn2-c2ncccn2)c1 (stereo unspecified),x,17.0,x,-3.9,-3.3,-2.6,8.1,9.9
COc1ccc(-n2c(-c3cccc(OC)c3)nc(=S)c3c2CCCC3)cc1,i,-3.4,-17.0,-0.1,-4.0,-31.4,1.9,-8.8
COc1ccc(S(=O)(=O)N2C3CCC2CC(NC(=O)C2CC2)C3)cc1 (stereo unspecified),i,3.7,5.9,-1.5,5.3,-16.0,-13.0,11.3
NC(=O)CSc1nnc(-c2ccccn2)n1N,i,-2.8,x,-0.2,-3.4,5.0,0.2,6.6
Nc1oc2ccccc2c1C(=O)Cc1ccccc1O[C@@H]1O[C@H](CO)[C@@H](O)[C@H](O)[C@H]1O,i,x,6.6,2.5,2.6,x,-2.4,x
COc1ccc(-c2csc3ncnc(N4CCN(CCO)CC4)c23)cc1,i,-7.4,x,-4.6,-6.0,32.9,-12.7,-11.8
Cc1cc(NCc2ccccc2)n2ncnc2n1,i,-4.2,x,3.7,-6.4,-2.6,-7.9,0.9
O=C(Nc1ccc2c(c1)OCCO2)C1CCN(S(=O)(=O)c2cccs2)CC1,i,-13.8,0.2,-0.9,-1.3,-9.4,0.0,-3.1
CCCn1c(C2CCCN2c2nc(-c3ccc(C)cc3)cs2)nc2cc(Cl)c(N3CCCCC3)cc21 (stereo unspecified),i,-1.8,-12.9,-0.3,-1.4,7.9,0.1,-6.3
CC(NC(=O)c1ccccc1Cl)C(=O)OCc1cn2cc(Cl)ccc2n1 (stereo unspecified),x,x,-7.3,-2.7,1.5,-4.3,7.0,x
Cc1ccc(C(=O)CSc2nnc(CNc3nc(-c4ccccc4)cs3)n2C)cc1,i,-3.5,-5.1,-0.9,-5.2,x,-6.0,-8.9
CCC/C(O)=C1\C(=O)CCCC1=NCCc1c(C)[nH]c2ccc(C)cc12,i,20.3,-20.5,-4.5,-4.3,20.3,-1.3,23.3
CCOC(=O)C1CCN(c2ncnc3c(C)csc23)CC1,i,-1.9,x,4.4,-12.4,-14.7,7.8,-2.2
COc1ccc(CCNC(=O)C(=O)NCc2ccc(Cl)cc2)cc1OC,i,-0.4,x,-5.6,-5.8,13.8,-13.2,6.9
CC(C)c1c(C(=O)N/N=C/c2cccc3ccccc23)nnn1-c1nonc1N,+,-12.7,-13.0,1.8,-11.9,11.8,-7.8,1.9
CCC(C)Sc1ccc([C@H]2N[C@@](CC(C)C)(C(=O)OC)[C@H]3C(=O)N(C)C(=O)[C@@H]23)cc1 (stereo partly specified),i,x,-1.4,2.2,-7.1,-40.3,30.5,x
CC(=O)Nc1ccc(C(=O)N2CCCC(c3cc(C(=O)NCc4ccc(F)cc4)no3)C2)cc1 (stereo unspecified),x,x,0.7,1.8,0.5,7.3,x,x
CCOc1ccc(C(=O)N/N=C(\c2ccccc2)c2ccccn2)cc1,i,2.1,-11.1,-7.0,-22.4,x,61.2,-14.5
Cc1ccn2c(CNCCn3nc(C)cc3C)c(C(=O)N3CCCCCC3)nc2c1,i,-5.8,-9.3,-2.1,-0.6,-41.4,x,4.4
O=C(O)CSc1ncnc2sc(-c3ccccc3)cc12,i,-4.6,x,-7.9,-3.0,7.3,-8.5,-0.8
O=C(CN1C(=O)NC(Cc2c[nH]c3ccccc23)C1=O)Nc1cccc(S(=O)(=O)N2CCOCC2)c1 (stereo unspecified),i,10.4,x,-4.1,3.8,-10.2,8.0,8.1
Cc1cc(C)c(NC(=O)c2ccc(S(=O)(=O)N(C)C)cc2)c(C)n1,i,-0.9,-4.3,3.0,-2.9,x,-10.2,-0.2
CN(N=Nc1ccccc1C(=O)O)C1CCCCC1,x,x,168.9*,0.3,3.9,-3.8,x,x
CN1CCN(c2ccc(CNC(=O)c3ccc(-c4ccnn4C)c4ccoc34)cc2)CC1,x,x,-11.0,3.8,1.6,-28.9,x,x
CCn1ccnc1C(O)c1ccc(N(C)C)cc1 (stereo unspecified),i,-0.1,-24.1,-2.2,-5.2,-44.2,-3.7,2.0
CC(C)c1nc(SCC(=O)Nc2ccc3c(c2)OCO3)n[nH]1,i,-2.3,x,1.1,5.5,x,-5.2,-8.3
Cc1ccc(C(=O)/C=C/c2ccc3c(c2)OCO3)o1,i,-2.2,-4.2,-4.0,-1.3,x,4.8,2.6
CCN(C(=O)COC(=O)c1ccc2c(c1)OCO2)c1ccc(F)cc1,x,x,-8.9,-2.4,0.3,-13.4,-19.5,x
O=C(c1ccccc1)N1CCN(c2ccc([N+](=O)[O-])c(NCc3cccnc3)c2)CC1,i,2.9,-3.2,-1.2,-5.2,42.4,8.9,-6.0
CCOC(=O)c1c(C)n(OCc2ccccc2)c2ccc3c(no[n+]3[O-])c12,i,-5.4,-11.3,3.7,-6.3,16.2,x,3.1
Cc1ccc(C(=O)C(C)OC(=O)CN2C(=O)NC3(CCCC3)C2=O)cc1 (stereo unspecified),i,x,-15.9,0.3,0.7,9.7,-2.5,x
Cc1ccc(C)c(C(=O)NC2CC(C)(C)NC(C)(C)C2)c1,i,-2.7,-13.3,-3.9,-5.9,3.4,-14.6,6.9
COCCN1C[C@@H](CO)O[C@@H](n2cnc3c(N(C)C(C)C)ncnc32)C1,x,x,-15.9,3.0,4.9,4.9,x,x
CCN(CC)S(=O)(=O)c1ccc2c(c1)nc(CCC(=O)Nc1ccc3c(c1)OCO3)n2C,i,20.9,-35.2,-5.7,-0.7,-14.7,1.1,-6.9

# Rewritten bar-delimited: two of the compounds above
structure | Rce1 inhib | eIF4H FP inh | UUG fidelity | MT1-MMP act inh | MT1-MMP act inh RFP | Env fusion inh | CSC inhib | PABP polyA inh
O=C(c1ccccc1)N1CCN(c2ccc([N+](=O)[O-])c(NCc3cccnc3)c2)CC1 | i | 2.9 | -3.2 | -1.2 | -5.2 | 42.4 | 8.9 | -6.0
CCOC(=O)c1c(C)n(OCc2ccccc2)c2ccc3c(no[n+]3[O-])c12 | i | -5.4 | -11.3 | 3.7 | -6.3 | 16.2 | x | 3.1

# Some entries already given, showing only UUG fidelity, PABP polyA inh and Env fusion inh:
canonical_smiles | UUG fidelity | PABP polyA inh | Env fusion inh
CCC(C)Sc1ccc([C@H]2N[C@@](CC(C)C)(C(=O)OC)[C@H]3C(=O)N(C)C(=O)[C@@H]23)cc1 (stereo partly specified) | -1.4 | x | -40.3
CC(=O)Nc1ccc(C(=O)N2CCCC(c3cc(C(=O)NCc4ccc(F)cc4)no3)C2)cc1 (stereo unspecified) | 0.7 | x | 7.3

# Additional results follow.
SMILES,Rce1 inhib,eIF4H FP inh,UUG fidelity,MT1-MMP act inh,MT1-MMP act inh RFP,Env fusion inh,CSC inhib,PABP polyA inh
Cc1ccc(S(=O)(=O)N2CCOC2CNC(=O)C(=O)NCCc2ccccc2)cc1 (stereo unspecified),i,-7.1,11.3,6.7,-8.7,11.9,-3.8,8.8
CNS(=O)(=O)c1cccc(C(=O)Nc2cccnc2)c1,i,-11.7,-3.4,-2.1,3.6,x,-16.0,-3.2
CCOc1ccc(C(=O)Nc2ccc3c(c2)C(=O)NC3=O)cc1,i,-12.3,-7.0,1.6,4.6,-11.4,10.5,-23.1
CC1=C(C(=O)N(C(C)C)C(C)C)CC(CC(=O)NC2CCCCC2)C(=O)N1Cc1ccc(C(C)(C)C)cc1 (stereo unspecified),x,x,-3.7,-15.6,-17.5,14.0,x,x
O=C1CCN(Cc2ccccc2)S(=O)(=O)c2ccc(C(F)(F)F)cc21,x,x,-24.3,5.7,-15.9,10.1,36.6,x
Cc1nn(-c2ccccc2)c(/N=C/c2ccc(O)cc2)c1-c1ccccc1,i,-2.6,-25.9,3.4,4.6,-30.4,9.4,1.5

# Part of the list above, reformatted.
Compound: NC(=O)CSc1nnc(-c2ccccn2)n1N
  Rce1 inhib: i
  eIF4H FP inh: -2.8
  UUG fidelity: x
  MT1-MMP act inh: -0.2
  MT1-MMP act inh RFP: -3.4
  Env fusion inh: 5.0
  CSC inhib: 0.2
  PABP polyA inh: 6.6
Compound: Nc1oc2ccccc2c1C(=O)Cc1ccccc1O[C@@H]1O[C@H](CO)[C@@H](O)[C@H](O)[C@H]1O
  Rce1 inhib: i
  eIF4H FP inh: x
  UUG fidelity: 6.6
  MT1-MMP act inh: 2.5
  MT1-MMP act inh RFP: 2.6
  Env fusion inh: x
  CSC inhib: -2.4
  PABP polyA inh: x
Compound: COc1ccc(-c2csc3ncnc(N4CCN(CCO)CC4)c23)cc1
  Rce1 inhib: i
  eIF4H FP inh: -7.4
  UUG fidelity: x
  MT1-MMP act inh: -4.6
  MT1-MMP act inh RFP: -6.0
  Env fusion inh: 32.9
  CSC inhib: -12.7
  PABP polyA inh: -11.8
